Compound activity deposited in PubChem BioAssay by PCMD.
Calb biofilm kill: clotrimazole potentiators killing C. albicans biofilm, primary screen, 4-compound mixtures. C. albicans biofilm persisters + clotrimazole, fluorescence viability; primary screen in compound mixtures of four per well. inhibition, % at 7.6 µM. hit rate 0.02% among 120,000. AID 1242, 2008;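 active means inhibition above 30.3% in the primary screen of four-compound pools, then above 30% when the compound was retested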;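 further: compounds exposed to preformed 24 h biofilms for 48 h; the number belongs to the whole pool; some results filed as inactive read as strong as hits; inactives centre near 12; 0% = biofilm with clotrimazole alone and 100% = kill control; retested singly at about 60 µM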
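Probe or stimulus – Clotrimazole 50 µg/mL co-treatment · System – C. albicans biofilms · Schedule – 24 h biofilm formation, then 48 h compound exposure, 37 °C · Evaluation – percent inhibition of biofilm viability · Technique – 2-h Alamar Blue fluorescence, 535/590 nm excitation/emission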
* marks the source's active call; other numbers are inactive results; & = joins results of further samples.

SMILES	Calb biofilm kill
NS(=O)(=O)c1ccc(Nc2nc(-c3cccc([N+](=O)[O-])c3)cs2)cc1	6
CCCCCCCCCn1ccc(=N)cc1	19
Cc1cc([N+](=O)[O-])ccc1NC(=O)CN1C2CCC1CC(NC(=O)NC13CC4CC(CC(C4)C1)C3)C2 (stereo unspecified)	21
Nc1c(-c2nn[nH]n2)cnn1-c1cc(Cl)cc(Cl)c1	25
O=C(N/N=C/c1ccc(Br)cc1)c1ccc(F)cc1	4
Cc1c(N=C2N=C(NC(=O)NC(C)(C)C)c3ccccc32)c(=O)n(-c2ccccc2)n1C	19
O=C(Nc1ccc(NC(=O)c2cccs2)cc1)c1ccc2c(c1)OCO2	20
O=C(NCc1cccc(Cl)c1)c1cc(COc2ccc3ncccc3c2)on1	19
C=CCN=C1NN=C(c2cc(C)n(CCOC)c2C)CS1	-17
CC(C)c1ccc2c(c1)C(c1cccs1)=NNC(c1ccncc1)=N2	16
CCCc1cc(=O)n(-c2nc3ccccc3s2)[nH]1	9
O=C(COC(=O)Cc1ccsc1)Nc1ccc(S(=O)(=O)N2CCOCC2)cc1	20
N#Cc1cn(CCOc2ccc(F)cc2)c2ccccc12	13
CCOc1ccc(NC(=O)CNC(=O)c2ccc(OC)cc2)cc1	11
CCOC(=O)C1CCN(C(=O)c2ccc(Oc3cc(Cl)cc(Cl)c3)o2)CC1	2
CC1(O)N(CCC(=O)Nc2cccc(F)c2)C(=O)OC12CCCCC2 (stereo unspecified)	7
O=C(O)CCCN=CC1=C(O)C(C(=O)c2ccccc2)CCC1=O (stereo unspecified)	13
COc1cccc(/C=N/NC(=O)CNC(=O)CCc2ccccc2)c1O	-2
O=C(NNc1ccc(C(F)(F)F)cc1[N+](=O)[O-])c1ccc(NS(=O)(=O)c2ccc(F)cc2)cc1	15
Cc1ccc(N2C(=O)[C@@H]3C(c4cccnc4)=NO[C@@H]3C2=O)cc1	3

Later entries.
SMILES	Calb biofilm kill
CC(=O)c1nnn(-c2ccc([N+](=O)[O-])cc2)c1C	4
Cc1nc(Nc2ccc(S(N)(=O)=O)cc2)sc1C(=O)Nc1ccccc1	6
CCN1CC(CN(C)Cc2nc(-c3cccs3)no2)CC1=O (stereo unspecified)	11
CN(C)C(/C=C/Nc1ccc(Br)cc1)=C(C#N)C#N	8
NS(=O)(=O)c1cc(C(=O)NCCOc2ccccc2)c(Cl)cc1Cl	10
Cc1cc(C)nc(NC(=O)c2ccc3c(c2)OCO3)c1	11
CCOC(=O)c1nnn2c1nc(N1CCCCC1)c1ccccc12	17
COc1cc(N2CCCC2)c(OC)cc1C=O	-3
CCOC(=O)c1cc(-c2ccccc2)sc1NC(=O)C(C)OC(=O)c1ccncc1 (stereo unspecified)	13
COc1ccc2c(c1)c(/C=N/Nc1nc3ccccc3[nH]1)c(C)n2C	3
Cc1cc(C)c(O)c(-c2n[nH]c3c2C(c2cccc(O)c2)N(Cc2ccco2)C3=O)c1 (stereo unspecified)	5
C/C(=N\O)C1CC(CC(=O)O)C1(C)C (stereo unspecified)	8
Cc1cc(C)c(C)c(S(=O)(=O)N2CCN(C(=S)NCC3CCCO3)CC2)c1C (stereo unspecified)	-3
COc1ccc(C2OCC3(O)C(c4ccc(OC)c(OC)c4)OCC23)cc1OC (stereo unspecified)	21
Cc1nc(-c2ccc3c(c2)OCCO3)cs1	-8
O=S(=O)(c1ccc(N2CCN(CCO)CC2)nc1)N1CCCCC1	9
O=C(CO/N=C/c1ccc(OC(F)F)cc1)NCc1ccco1	12
CCc1ccc(N(CC(=O)Nc2ccc(NC(C)=O)cc2)S(=O)(=O)c2ccccc2)cc1	12
CCOCCCNS(=O)(=O)c1ccc(NC(=O)c2ccc([N+](=O)[O-])cc2Cl)cc1	11
O=C(NCCN1C(=O)S/C(=C\c2cccnc2)C1=O)C1=NN(c2ccccc2)C(=O)CC1	13

Retrieved by structure from the entries so far, four records:
SMILES	Calb biofilm kill
COc1cccc(/C=N/NC(=O)CNC(=O)CCc2ccccc2)c1O	-2
NS(=O)(=O)c1ccc(Nc2nc(-c3cccc([N+](=O)[O-])c3)cs2)cc1	6
NS(=O)(=O)c1cc(C(=O)NCCOc2ccccc2)c(Cl)cc1Cl	10
CCN1CC(CN(C)Cc2nc(-c3cccs3)no2)CC1=O (stereo unspecified)	11

More results:
SMILES	Calb biofilm kill
Cc1nc2nc[nH]n2c(=O)c1CCOC(=O)c1c(F)cccc1F	7
Cc1sc(N2C(=O)C3C4C=CC(C4)C3C2=O)c(C#N)c1C (stereo unspecified)	2
O=C(O)CCCn1cc(NC(=O)c2cccc(F)c2)cn1	-4
COCCNC(=S)N1CCc2cc(OC)c(OC)cc2C1COc1ccc(C(C)C)cc1 (stereo unspecified)	17
Cc1cccn2c(=O)c3cc(S(=O)(=O)c4ccccc4)c(=N)n(Cc4ccco4)c3nc12	5
COc1cc(C(NC(C)=O)NC(C)=O)ccc1OCc1ccccc1	12
O=C(CCC(=O)OCC(=O)c1ccccc1)Nc1cccc(Cl)c1	5
CCOC(=O)C1C(=O)NC(c2ccccc2)=NC1c1ccc(O)c(OC)c1 (stereo unspecified)	17
COc1ccc(C(=O)OCC(=O)NCCCc2ccccc2)cc1[N+](=O)[O-]	-10
Cn1c(NNC(=O)CCC2CCCCC2)cc(=O)n(C)c1=O	9
COc1cc(NC(=O)c2cc(-c3cccnc3)nc3ccc(Br)cc23)cc(OC)c1	20
O=C(C[n+]1cccc2ccccc21)c1ccc(NC(=O)c2ccccc2)cc1	10
CCn1c(CSc2nc(C)cc(C)n2)nnc1SCC(N)=O	15
O=C(CNC(=O)c1cccc(F)c1)OCC(=O)N1CCCc2ccccc21	10
Cc1ccc(CN2CCN(/N=C/c3cccnc3)CC2)cc1	25
O=C(NCc1ccco1)C(c1ccc(F)cc1)N(C(=O)Cc1cccs1)c1cccnc1 (stereo unspecified)	9
Cc1ccc(C)c2[nH]c(=O)c(CN(Cc3cccs3)C(=S)NCc3ccco3)cc12	23
Cc1ccc(/C=N/NC(=O)C2(O)c3ccccc3-c3ccccc32)o1	-16
O=C(CC1NCCN(Cc2ccccc2)C1=O)Nc1ccc(Cl)cc1 (stereo unspecified)	9
CN1CCN(C(=O)CCc2nc3ccccc3n2-c2ccccc2)CC1	10

The list goes on.
SMILES	Calb biofilm kill
Cc1cccc(N=c2c([N+](=O)[O-])nn(-c3ccc(Cl)cc3)n2O)c1	12
O=C(NCc1ccc(-c2csnn2)cc1)C1CC1	23
O=C(CSc1nnc(CNc2cccc(C(F)(F)F)c2)n1Cc1ccco1)NCc1ccco1	15
Nc1nnc(SCC(=O)Nc2ccc(Cl)c(C(=O)O)c2)s1	5
COc1ccc(NC(=O)COC(=O)CNS(=O)(=O)c2ccc(F)c(F)c2F)cc1OC	21
CCOC(=O)CCNCc1ccc(OC)c(OC)c1	15
O=C(COc1ccccc1)Nc1nccs1	-10
CCOC(=O)C1(Cc2ccc(Cl)cc2)CCN(Cc2cnc(N)nc2)CC1	13
N#Cc1nnn(-c2ccc(Cl)cc2)c1N	20&24
O=C(O)/C=C/C(=O)N1CCN(S(=O)(=O)c2cccc(C(F)(F)F)c2)CC1	2
Cc1cc(Br)c(NC(=O)CN(C)CCOc2ccccc2)c(Br)c1	2
O=C(CNC(=O)C12CC3CC(CC(C3)C1)C2)N1CCN(S(=O)(=O)/C=C/c2ccccc2)CC1	12
CCN1CCc2nc3ccccc3c(C(=O)Nc3ccc(F)cc3)c2C1	16
CC(=O)N(CC(=O)Nc1sc(C)c(C)c1C(N)=O)Cc1ccccc1	25
O=C(c1cc(-c2ccc(F)cc2)on1)N1CCCc2ccccc21	17
Cc1nc2ccccn2c1C(=O)NCC(C)C	11
Cc1cc(=O)oc(C)c1C(=O)Nc1cccc(F)c1	11
C=CCc1cccc2cc(C(=O)Nc3ccc(CC(=O)O)cc3)c(=O)oc12	12
CC(c1cccs1)N(C)Cc1nc(CCc2ccccc2)no1 (stereo unspecified)	19
CC(=O)c1cccc(Nc2nc(-c3ccccc3)cs2)c1	9

(further entries)
SMILES	Calb biofilm kill
C=CCN(c1ccccc1)S(=O)(=O)c1cccc(C(=O)OCC(=O)NCCOC)c1	16
O=C(NCCCN1CCCC1=O)c1cc(-c2cccnc2)nc2ccc(Cl)cc12	3
COCC(=O)Nc1cc(C)c2c(=O)oc3ccccc3c2n1	17
O=C(Cc1ccccc1)N/N=C/c1ccccc1F	12
Cc1cccc(NC(=O)COC(=O)c2ccccc2-c2nc3ccccc3s2)c1C	1
COc1c(C)cc(C(=O)C2CCCN(C(=O)c3cc(C)nc(C)n3)C2)cc1C (stereo unspecified)	13
CCCN(CCC)C(=O)Nc1cc(Cl)ccc1OC	3
Cc1cc(Cl)ccc1NC(=O)/C=N/O	19
O=C1CN(C(=O)COc2ccc(Br)cc2F)c2ccccc2N1	13
CC(=O)Nc1ccc(NC(=O)CNC(=O)COc2ccccc2)cc1	7
COc1cc(/C=C2\SC(=N)N(c3ccc4c(c3)OCO4)C2=O)cc(OC)c1O	10
Cc1ccc(C(C)C)c(OCC(=O)N/N=C/c2cccn2C)c1	6
CC1(C)CC2(CCO1)OC(=O)CC2C(=O)Nc1ccc(Cl)cc1[N+](=O)[O-] (stereo unspecified)	20
Cc1ccc2cc(CCl)c(Cl)nc2c1	8
CNC(=O)/C(C#N)=C\c1cc(C)n(-c2ccc(N3CCOCC3)cc2)c1C	18
CCCCCCNC(=O)N1C/C=C\C(c2ccc(OC)cc2)N(Cc2ccc(F)cc2)C(=O)C1 (stereo unspecified)	14
COc1ccc(-c2[nH]ncc2C=O)cc1	9
O=C(O)c1cccc(N2C(=O)C3C4C=CC(C4=C(c4ccccc4)c4ccccc4)C3C2=O)c1 (stereo unspecified)	14
O=C(Nc1ccc(NC(=O)c2ccccc2O)cc1)Nc1ccc(F)cc1F	13
COc1ccc(/C=C/C(=O)NC(=S)Nc2ccc(S(=O)(=O)Nc3ccc(OC)nn3)cc2)cc1	14

Going on with the list:
SMILES	Calb biofilm kill
CCn1cc(Br)c(C(=O)Nc2ccc(Cl)c(Cl)c2)n1	17
O=C(Nc1ccccc1)C1=C[C@@H](c2ccc(C(F)(F)F)cc2)C[C@@H](OCc2ccc(CO)cc2)O1	21
O=C1CC(Cc2ccccc2)C(=O)N1c1ccccn1 (stereo unspecified)	12
COc1cc(CNc2cccc(C(=O)O)c2)cc(Br)c1OCC(=O)NC(C)(C)C	4
Cc1cc(NC(=O)CCC(=O)N(Cc2ccco2)C(C(=O)NC2CCCCC2)c2ccccc2)no1 (stereo unspecified)	6
COC(=O)C(C(=O)OC)C(C(=O)OC)C(C(=O)OC)C(=O)OC	10
O=C(O)c1cc2c(cc1Br)OCCCO2	-13
Cc1ccc(Nc2nc(N)nc(-c3oc4ccccc4c3C)n2)cc1	17
CSc1cccc(NC(=S)N(CCC(C)C)C2CCN(C(C)C)CC2)c1	7
Cc1cc(N2CCN(C)CC2)nc2ccc(NC(=S)N3CCC4(CC3)OCCO4)cc12	8
CC(=O)Nc1cccc(-c2csc(NCc3ccccc3)n2)c1	0
Cc1cc(C)nc(Oc2ccc(Br)cc2)n1	16
Cc1ccc(S(=O)(=O)N(C)C)cc1NC(=O)COC(=O)c1ccc(Cl)cc1	12
O=C(Cc1ccccc1)Nc1nnc(SCC(=O)NC2CCCC2)s1	9
Cc1ccc(C(=O)N2CCCC(c3ccc(Cl)cc3)=N2)cc1	14
O=C(/C=C\c1ccco1)Nc1cc([N+](=O)[O-])ccc1F	13
CC(c1nc2ccccc2o1)N1C(=O)c2ccccc2C1=O (stereo unspecified)	-2
COc1ccc(N(C)S(=O)(=O)c2cccc(C(=O)Nc3ccc4c(c3)OCCO4)c2)cc1	-2
O=C(CCSCc1ccc(Cl)cc1)NCCc1ccccc1	21
CS(=O)(=O)Nc1nnc(SCC(=O)Nc2cccc([N+](=O)[O-])c2)s1	-4

(next part)
SMILES	Calb biofilm kill
O=C(O)CCn1c(=S)oc2ccccc21	11
COc1ccc(C)cc1NC(=O)C(Sc1nnc2ccccn12)c1ccccc1 (stereo unspecified)	16
O=C(CSc1nncs1)NCc1ccc(F)cc1	8
COCCN(C(=S)Nc1ccc(OC)cc1)C1CCN(C(C)C)CC1	21
Cc1ccc(/C=N/NC(=O)c2nc3nc(C)cc(C)n3n2)cc1	14
COc1cccc(CN2CCN(c3cccc(C(F)(F)F)c3)CC2)c1OC	13
Cc1cccc(N2CN=C3SCC(=O)N3C2)c1	14
O=C(NC(=S)Nc1nc(-c2ccccc2)cs1)c1cccnc1	14
Cc1cc(C)c(NC(=O)COC(=O)Cc2ccsc2)c(C)c1	15
Cc1cc(C)n2c(SCc3c(C)noc3C)nnc2n1	-4
CCN(CC)CC(C)OC(=O)c1ccccc1Cl (stereo unspecified)	12
CN(C)S(=O)(=O)c1ccc(NC(=O)Cc2ccc(S(=O)(=O)N3CCOCC3)s2)cc1	10
COCCNC(=S)Nc1ccc(Cl)c(Cl)c1	5

A portion of the library, so the mix of outcomes need not match the whole.
